# Insulin prom inh: inhibitors of insulin promoter-driven GFP, primary screen, imaging, TRM-6 cells (human fetal islet line), eGFP reporter, cell count; reporter expression induced with tamoxifen; inhibition, % at 2 µM; 0.9% of 130,000 active;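 active = inhibition above the mean plus 3 SD, with well images judged a real hit on visual review, cut at about 60% in these data, passing the limit was not always enough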
# RGS16-Gao: modulators of RGS16 binding to Galphao, primary screen, biochemical, human proteins, multiplexed bead flow cytometry. Regulator of G-protein signaling 16 (Homo sapiens) + Guanine nucleotide-binding protein …. bead-based flow cytometry RGS16-Galphao binding, fluorescence; actives lie on both sides. binding response (% of control), % at 10 µM. 0.38% of 220,000 active. AID 1441, 2008;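 active = below 25% or above 175%, edge rows of some plates excepted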;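 also: Galphao activated by GDP with aluminum fluoride before binding; 100% = wells without compound and 0% = beads without RGS; some results beyond the cut were filed as inactive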
# Target sequence (O15492 whole entry, looked up): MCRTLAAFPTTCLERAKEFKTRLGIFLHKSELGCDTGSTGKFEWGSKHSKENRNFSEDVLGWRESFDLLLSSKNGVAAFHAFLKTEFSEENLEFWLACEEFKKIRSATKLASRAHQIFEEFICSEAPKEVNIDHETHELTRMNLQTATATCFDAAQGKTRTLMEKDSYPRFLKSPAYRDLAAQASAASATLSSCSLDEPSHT
# Target sequence (P09471 whole entry, looked up): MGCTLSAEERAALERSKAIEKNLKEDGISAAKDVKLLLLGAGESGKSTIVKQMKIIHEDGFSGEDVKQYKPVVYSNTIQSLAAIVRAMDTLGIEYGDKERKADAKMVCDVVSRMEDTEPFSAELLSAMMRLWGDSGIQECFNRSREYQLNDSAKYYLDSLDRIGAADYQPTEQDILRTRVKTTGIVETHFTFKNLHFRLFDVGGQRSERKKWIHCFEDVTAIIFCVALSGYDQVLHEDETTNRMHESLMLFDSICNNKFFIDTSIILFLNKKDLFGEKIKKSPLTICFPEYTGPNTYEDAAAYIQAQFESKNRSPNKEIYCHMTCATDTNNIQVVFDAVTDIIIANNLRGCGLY
# PKD1 inh: inhibitors of human PKD1 kinase, biochemical, fluorescence polarization. inhibition, %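 (about 10 µM by stock and volumes)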. 0.056% of 200,000 active. PKD1 kinase fluorescence polarization assay. Serine/threonine-protein kinase D1 (Homo sapiens), Q15139;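 active = inhibition of 50% or more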;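 also: controls were vehicle for no effect and a reference inhibitor for full effect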
# GALR2 ag: GALR2 receptor agonists, primary screen, cell-based; AID 803, 2007; activation, %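 (tested at 5 µM)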; 0.48% of 140,000 active; GALR2-expressing cells, agonist activation read-out; Galanin receptor type 2 (Homo sapiens), O43603;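 active = above mean plus 3 SD of all compounds, about 5% in these data, not always enough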;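 also: 0% = vehicle buffer wells and 100% = reference agonist at full effect; tested in CHO reporter cells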
# Target sequence (O43603 whole entry, looked up): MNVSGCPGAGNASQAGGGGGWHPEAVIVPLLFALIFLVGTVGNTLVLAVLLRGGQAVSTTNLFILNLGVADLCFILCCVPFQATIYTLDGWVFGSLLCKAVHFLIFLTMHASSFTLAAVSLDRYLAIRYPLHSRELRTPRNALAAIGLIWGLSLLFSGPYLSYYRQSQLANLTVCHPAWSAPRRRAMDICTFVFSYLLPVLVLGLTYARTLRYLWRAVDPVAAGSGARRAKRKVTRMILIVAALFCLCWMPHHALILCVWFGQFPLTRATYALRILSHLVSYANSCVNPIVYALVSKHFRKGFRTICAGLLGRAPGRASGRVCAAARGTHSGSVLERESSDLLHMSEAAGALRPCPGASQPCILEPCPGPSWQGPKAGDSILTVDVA
# HSV replic up: enhancers of HSV replication in host cells, fold increase, host cell viability | HSV replication augmentation in cells | maximum fold increase | 0.005% of 220,000 active;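 active = peak rise of 1.5-fold or more in the series; tested in PC3 cells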;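 also: first round at 10 µM; read as green reporter fluorescence; hits show the peak of a series up to 25 µM; 1 = signal of infected wells without compound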
# Insulin prom inh cell count: also measured in Insulin prom inh; calls as there; normalized cell count, %; measured here: cell count, toxicity; reference of the scale not given here;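 cells exposed to compound for 48 h; stained nuclei by imaging scaled within each plate; lower means fewer cells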
# HSV replic up primary fold: also measured in HSV replic up; calls as there; fold increase; compound at 10 µM; measured here: primary screen fold increase 10 uM; tested in PC3 cells;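 GFP signal in the first replicate; 1 = infected wells without compound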
# Active calls of the source: *; i = inactive; . = no result given.
# Assay codes: A = Insulin prom inh; B = Insulin prom inh cell count; C = RGS16-Gao; D = PKD1 inh; E = GALR2 ag; F = HSV replic up; G = HSV replic up primary fold
CC(Cc1ccccc1)NC(N)=O (centres undefined)
  A = .	B = .	C = 103	D = .	E = .	F = i	G = 1.1
CCC(=NCc1ccc2c(c1)OCO2)c1c(O)n(C)c(=O)n(C)c1=O
  A = .	B = .	C = 103	D = -1	E = -2.6	F = i	G = 0.81
CCOP(=O)(OCC)c1cc(C)c(O)c(C(C)(C)C)c1
  A = .	B = .	C = 99	D = .	E = .	F = i	G = 1.3
CC(C)CN1CCN(Cc2ccc(F)cc2Cl)CC1CCO (centres undefined)
  A = .	B = .	C = 107	D = .	E = .	F = i	G = 0.87
CCN1CCN(C(=O)COc2ccc3c(c2)C(=O)CC2(CCN(C(C)=O)CC2)O3)CC1
  A = .	B = .	C = 100	D = -1	E = -1.7	F = i	G = 0.93
CCC(C)N1C(=O)/C(=C\c2ccc(N3CCCCCC3)cc2)C(=O)NC1=S (centres undefined)
  A = 0	B = 104	C = 112	D = 14	E = -0.1	F = .	G = .
C=CCN1C(=O)/C(=C/c2cc(C)n(-c3ccccn3)c2C)C(=O)NC1=S
  A = -11	B = 79	C = 106	D = -7	E = -1.8	F = i	G = 1.3
CCOC(=O)c1c(C)c(C(=O)N2CCC3(CC2)OCCO3)c(C)n1CC
  A = .	B = .	C = 110	D = -4	E = -0.2	F = i	G = 1.1
O=C1CN(C(=O)COC(=O)Cc2ccccc2)c2ccccc2N1
  A = .	B = .	C = 96	D = -3	E = .	F = i	G = 1
CCCCCCOC(=O)c1ccccc1N
  A = .	B = .	C = 96	D = -6	E = -1.0	F = i	G = 1
CC1SC2(CN3CCC2CC3)NC1=O (centres undefined)
  A = .	B = .	C = 97	D = -10	E = -0.2	F = i	G = 0.84
O=[N+]([O-])c1ccc(NCCCN2CCOCC2)c2ncccc12
  A = 43	B = 105	C = 88	D = -5	E = .	F = i	G = 0.97
CN(C)C(=O)Oc1ccc(-c2cn3cc(Cl)ccc3n2)cc1
  A = .	B = .	C = 35	D = 0	E = 0.9	F = i	G = 0.84
Cc1cc(C)c(NC2=NCCCS2)c(C)c1
  A = -114	B = 75	C = 108	D = 2	E = 0.1	F = i	G = 1
COC(=O)CC1NC2CCCCC2NC1=O (centres undefined)
  A = -347	B = 31	C = 98	D = -7	E = -0.6	F = i	G = 0.82
COc1cccc(C(=O)C2CCCN(Cc3ccc4nonc4c3)C2)c1 (centres undefined)
  A = -27	B = 134	C = 104	D = 3	E = .	F = i	G = 0.89
Cc1ccc(-n2nc(C)c(C3C(C#N)=C(N)Oc4c3c(=O)oc3ccccc43)c2Cl)cc1 (centres undefined)
  A = -21	B = 105	C = 87	D = -13	E = -0.8	F = .	G = .
O=C(Cc1ccccc1)N1CCN(Cc2cccnc2)CC1
  A = 59	B = 87	C = 103	D = -6	E = -1.6	F = i	G = 1
c1ccc2c3c([nH]c2c1)CNCC3
  A = 18	B = 82	C = 95	D = -19	E = -0.8	F = i	G = 0.93
COC(=O)C1C2c3ccccc3OC1(C)N=c1s/c(=C/c3cn(C)nc3C)c(=O)n12 (centres undefined)
  A = .	B = .	C = 77	D = 6	E = 0.5	F = i	G = 0.91
CC12CN3CCN(C1)CC(C)(C3)C2=NN
  A = .	B = .	C = 95	D = .	E = .	F = i	G = 0.92
Cc1ccc(NC(=O)c2snnc2C)cc1Cl
  A = 8	B = 81	C = 106	D = 1	E = .	F = i	G = 1
CCC1(C(=O)c2ccccc2)C2c3ccccc3OC(=O)C21C(C)=O (centres undefined)
  A = .	B = .	C = 97	D = .	E = .	F = i	G = 0.94
Cc1c(C(c2ccc(F)cc2)c2c(O)c3ccccc3oc2=O)c(=O)n(-c2ccccc2)n1C (centres undefined)
  A = -36	B = 130	C = 84	D = 5	E = -0.4	F = i	G = 0.92
CC(=C1C(=O)c2ccccc2C1=O)N1CCN(CCN=Cc2c(O)n(C)c(=O)n(C)c2=O)CC1
  A = 38	B = 96	C = 95	D = 1	E = -2.2	F = i	G = 1
C/C1=C\[C@@H](C)C/C=C/[C@H]2[C@@H]3O[C@]3(C)[C@@H](C)[C@H]3[C@H](Cc4c[nH]c5ccccc45)NC(=O)[C@]32C(=O)/C=C/C(=O)[C@@H]1O
  A = .	B = .	C = 89	D = 12	E = .	F = i	G = 0.57
Cc1nc2cc(-c3cccc(F)c3)nn2c(C)c1CCC(=O)N1CCC2(CC1)OCCO2
  A = .	B = .	C = 113	D = -14	E = -0.9	F = i	G = 0.84
CC(C)(C)C(=O)c1cn(Cc2ccccc2)c2ccccc12
  A = .	B = .	C = 101	D = -4	E = .	F = i	G = 0.74
O=C(COc1ccc(Cl)cc1)N(c1ccc(Cl)cc1)C1CN2CCC1CC2 (centres undefined)
  A = .	B = .	C = 98	D = .	E = .	F = i	G = 0.7
CCC(C)NS(=O)(=O)c1ccc(OCC(=O)N2CCN(CC)CC2)cc1 (centres undefined)
  A = 44	B = 115	C = 105	D = -1	E = -2.2	F = i	G = 1
COc1ccccc1CN1CCN(Cc2ccc(Cl)cc2)CC1
  A = 8	B = 139	C = 165	D = -5	E = .	F = i	G = 0.95
OC1/C(=C/c2ccc(C(F)(F)F)cc2)N2CCC1CC2 (centres undefined)
  A = 25	B = 135	C = 100	D = -1	E = .	F = i	G = 0.87
CC(=O)OC1C2CCC1C(N1CCCCC1)CC2 (centres undefined)
  A = -36	B = 116	C = 100	D = -1	E = .	F = i	G = 0.94
O=C(Cn1cc(C(=O)c2ccccc2)c2ccccc21)NCc1ccco1
  A = 20	B = 90	C = 111	D = 1	E = -3.3	F = i	G = 0.99
COCc1cc(OC(=O)N(C)C)nc2c1c(C)nn2C
  A = .	B = .	C = 95	D = .	E = .	F = i	G = 1
CN1C(=O)NC(=O)/C(=C/c2ccc(C(=O)O)cc2)C1=O
  A = .	B = .	C = 93	D = .	E = .	F = i	G = 0.99
CCCC1COC(Cn2cncn2)(c2ccc(Cl)cc2Cl)O1 (centres undefined)
  A = 19	B = 83	C = 96	D = -2	E = -4.5	F = i	G = 0.77
CCOC(=O)CC1=C(C(=O)OCC)C2(C(=O)N1)C(C(=O)OC)=C(N)Oc1ccccc12 (centres undefined)
  A = 28	B = 90	C = 98	D = 2	E = -0.5	F = i	G = 0.87
Cc1cccc(OCC(=O)N2CCN(Cc3ccc([N+](=O)[O-])cc3)CC2)c1
  A = 31	B = 112	C = 103	D = 4	E = .	F = i	G = 0.97
CN1CCN(c2ccccc2N)CC1
  A = -4	B = 101	C = 89	D = 1	E = 0.0	F = i	G = 1.2
COc1ccc(C2CN(C)CC2C(=O)c2ccc(C)cc2)cc1Cl (centres undefined)
  A = -56	B = 65	C = 112	D = 0	E = .	F = i	G = 0.81
Cc1ccc(N2C(=O)NC(=O)/C(=C\C=C\c3ccco3)C2=O)cc1C
  A = -26	B = 81	C = 85	D = -4	E = 0.5	F = i	G = 1.3
O=C(c1ccc(-c2ccccc2)cc1)C1CCCN(Cc2ccn[nH]2)C1 (centres undefined)
  A = -30	B = 101	C = 101	D = -1	E = .	F = i	G = 0.66
CN(C)CCCN=Cc1c(O)n(CCc2ccc(F)cc2)c(=O)[nH]c1=O
  A = 28	B = 75	C = 97	D = 3	E = -3.6	F = i	G = 1
CN1C(=O)N(C)C(=O)C2(Cc3cc([N+](=O)[O-])ccc3N(C)C2c2ccccc2)C1=O (centres undefined)
  A = -68	B = 119	C = 102	D = 16	E = 0.3	F = i	G = 1.1
O=P1(NCCCn2cc[n+](Cc3nc4ccccc4[nH]3)c2)C=C(c2ccccc2)OC(c2ccccc2)=C1
  A = .	B = .	C = 93	D = .	E = .	F = i	G = 1
CCCCCCOc1ccc(CN2CCN(C)CC2)cc1
  A = 6	B = 181	C = 98	D = -6	E = -2.5	F = i	G = 0.78
CCOc1ccc(-n2c(-c3cccs3)nc3ccccc3c2=O)cc1
  A = .	B = .	C = 99	D = -7	E = .	F = i	G = 1
CNC(=O)Oc1cccc(-c2cn3cc(OC(=O)NC)ccc3n2)c1
  A = -38	B = 107	C = 111	D = -9	E = 0.4	F = i	G = 1.1
CCCCCCCCN=Cc1c(O)[nH]c(=O)[nH]c1=O
  A = .	B = .	C = 104	D = .	E = .	F = i	G = 1.1

# Whole records, quoted from the list:
# Profile of CNC(=O)Oc1cccc(-c2cn3cc(OC(=O)NC)ccc3n2)c1 → Insulin prom inh: -38; Insulin prom inh cell count: 107; RGS16-Gao: 111; PKD1 inh: -9; GALR2 ag: 0.4; HSV replic up: i; HSV replic up primary fold: 1.1
# Profile of CC(C)(C)C(=O)c1cn(Cc2ccccc2)c2ccccc12 → Insulin prom inh: .; Insulin prom inh cell count: .; RGS16-Gao: 101; PKD1 inh: -4; GALR2 ag: .; HSV replic up: i; HSV replic up primary fold: 0.74
# Profile of CN1C(=O)N(C)C(=O)C2(Cc3cc([N+](=O)[O-])ccc3N(C)C2c2ccccc2)C1=O (centres undefined) → Insulin prom inh: -68; Insulin prom inh cell count: 119; RGS16-Gao: 102; PKD1 inh: 16; GALR2 ag: 0.3; HSV replic up: i; HSV replic up primary fold: 1.1

# (cont.)
# Assay codes: A = Insulin prom inh; B = Insulin prom inh cell count; C = RGS16-Gao; D = PKD1 inh; E = GALR2 ag; F = HSV replic up; G = HSV replic up primary fold
O=C(C[N+]12CCC(CC1)C(C(O)(c1ccccc1)c1ccccc1)C2)c1ccc(Br)cc1 (centres undefined)
  A = .	B = .	C = 102	D = .	E = .	F = i	G = 0.84
C=C(C)CSc1nnc([C@@H](N)Cc2ccccc2)o1
  A = .	B = .	C = 99	D = .	E = .	F = i	G = 1.2
Cn1c(O)c(C2=NNC(c3ccc(Cl)cc3)C2)c(=O)n(C)c1=O (centres undefined)
  A = .	B = .	C = 104	D = .	E = .	F = i	G = 0.94
CCCN1CCC2(CC1)NC(CO)(CO)CO2
  A = 12	B = 42	C = 102	D = -2	E = -0.7	F = i	G = 0.99
Nc1ccc(Br)cc1C(=O)c1ccccc1
  A = -44	B = 56	C = 108	D = 8	E = .	F = i	G = 0.85
O[C@H]1C2CCC1C(N1CCCCC1)CC2 (some centres undefined)
  A = 36	B = 63	C = 105	D = -3	E = -0.6	F = i	G = 0.89
CCN1CCN(Cc2cc(Br)cc(OC)c2O)CC1
  A = -14	B = 119	C = 158	D = -2	E = -1.7	F = i	G = 0.97
CCOc1ccc(NC(=O)c2c(C)nn(Cc3ccccc3)c2Cl)cc1
  A = .	B = .	C = 101	D = -14	E = -2.0	F = i	G = 0.95
Clc1ccc(Cn2ccnc2)cn1
  A = .	B = .	C = 105	D = 0	E = .	F = i	G = 1.1
COc1cccc(-n2c(-c3ccoc3)nc3ccccc3c2=O)c1
  A = -21	B = 148	C = 97	D = -6	E = 1.2	F = i	G = 1.1
CC(=O)Nc1ccc(OC(=O)N(C)C)cc1
  A = 18	B = 98	C = 109	D = 6	E = 0.8	F = i	G = 0.98
Cc1cccc(OCC(=O)N2CCN(Cc3cccnc3)CC2)c1
  A = -12	B = 126	C = 94	D = 3	E = .	F = i	G = 0.91
CC1CN=C(Nc2cccc3ccccc23)S1 (centres undefined)
  A = -57	B = 68	C = 99	D = 13	E = -1.9	F = i	G = 1
Cc1ccsc1C(=O)C1CCCN(Cc2cccc(OCCO)c2)C1 (centres undefined)
  A = .	B = .	C = 112	D = 1	E = .	F = i	G = 1.1
CC(=O)N1N=C(c2cccnc2)OC1c1ccccc1Cl (centres undefined)
  A = .	B = .	C = 95	D = .	E = .	F = i	G = 0.92
O=C(Nc1ccc(Cl)cc1C(=O)c1ccccc1Cl)c1ccco1
  A = -230	B = 106	C = 93	D = -5	E = -2.7	F = i	G = 0.96
O=c1[nH]c(=S)n(C2CC2)c(O)c1C=NCc1cccnc1
  A = .	B = .	C = 95	D = .	E = .	F = i	G = 0.82
C#CCN1C(=O)S/C(=C\c2ccc(N3CCOCC3)cc2C)C1=O
  A = .	B = .	C = 95	D = 4	E = .	F = i	G = 2
Cc1cc(C)nc(NC2=NCCS2)n1
  A = -25	B = 59	C = 101	D = -7	E = -1.9	F = i	G = 1
CCN1CC2C3CCC(C)(O3)C2C1 (centres undefined)
  A = .	B = .	C = 116	D = .	E = .	F = i	G = 0.89

# Some values from the list:
# Under HSV replic up primary fold, `Cc1cccc(OCC(=O)N2CCN(Cc3cccnc3)CC2)c1` shows 0.91
# Under HSV replic up primary fold, `CCOC(=O)c1c(C)c(C(=O)N2CCC3(CC2)OCCO3)c(C)n1CC` shows 1.1

# Screening results (PubChem)

# The list is partial; count on the stated rates, not on these rows.
